# rRNA inh HTS – selective bacterial rRNA inhibition in E. coli. E. coli WT GFP vs humanized-ribosome RFP mutants, fluorescence, 24 h; hits give low values; DMSO median 0, no signal -100. GFP signal change (wild-type ribosome), % (test concentration not listed). 1.6% of 350,000 active;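 active = significant combined selectivity score with lowered wild-type GFP, culture density cut under 30%, mutant RFP and density less affected; inactive = any of these conditions unmet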; also: one replicate is shown; some compounds called inactive have numbers as strong as hits
# HNF4A DNA FP – change in binding of human HNF4 alpha to DNA | 0.3% of 360,000 active | HNF4a-FITC DNA binding, fluorescence polarization, 1 h | activity change, % at 10 µM | P41235; in the data active = activity change above about 30%, passing the limit was not always enough;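 also: controls were the assay level and a saturating level of protein; the project sought stronger binding though the title names inhibitors; some compounds called inactive have numbers as strong as hits; positive values seem to mean higher polarization but the record does not say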
# AF4-AF9 inh – blocks AF4 peptide binding to human AF9; AlphaScreen, biotin-AF4 peptide binding to FLAG-AF9; P42568; inhibition, % at 10 µM; 0.47% of 350,000 active;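 active = every replicate reaching a set inhibition limit, whatever the replicate mean, cut at about 25% in these data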;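 also: 0% = plate neutral control median and 100% = total signal loss; the record names both 10 and 1 µM as test concentration; the first replicate is given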
# Target sequence (P42568 whole entry, looked up): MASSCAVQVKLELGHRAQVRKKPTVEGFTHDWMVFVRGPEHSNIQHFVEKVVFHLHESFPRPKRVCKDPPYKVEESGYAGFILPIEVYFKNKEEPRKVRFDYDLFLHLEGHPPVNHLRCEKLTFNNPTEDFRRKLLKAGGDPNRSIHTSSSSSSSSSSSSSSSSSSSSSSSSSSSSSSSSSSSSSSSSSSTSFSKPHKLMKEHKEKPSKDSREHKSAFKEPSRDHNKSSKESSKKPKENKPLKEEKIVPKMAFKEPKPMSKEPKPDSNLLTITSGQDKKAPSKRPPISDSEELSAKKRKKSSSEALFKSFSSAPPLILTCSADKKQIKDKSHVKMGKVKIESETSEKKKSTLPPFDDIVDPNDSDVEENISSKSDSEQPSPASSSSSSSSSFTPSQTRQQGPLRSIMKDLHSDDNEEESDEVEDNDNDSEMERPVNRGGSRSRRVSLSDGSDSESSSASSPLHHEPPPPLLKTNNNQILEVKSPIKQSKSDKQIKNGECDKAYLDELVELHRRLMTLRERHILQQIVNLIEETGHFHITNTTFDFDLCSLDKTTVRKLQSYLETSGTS
# ALR H2O2 inh – human ALR oxidase inhibition via reduced H2O2; AID 485317; 3.8% of 290,000 active; P55789; purified ALR, DTT oxidation, H2O2 HRP-luminol luminescence; inhibition, % (no concentration beside the values);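 active = mean and each replicate at 75% or more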;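 also: stock transfer was 7.5 nL into about 7.5 µL; 0% = neutral wells and 100% = wells with inactivated enzyme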
# Target sequence (P55789 whole entry, looked up): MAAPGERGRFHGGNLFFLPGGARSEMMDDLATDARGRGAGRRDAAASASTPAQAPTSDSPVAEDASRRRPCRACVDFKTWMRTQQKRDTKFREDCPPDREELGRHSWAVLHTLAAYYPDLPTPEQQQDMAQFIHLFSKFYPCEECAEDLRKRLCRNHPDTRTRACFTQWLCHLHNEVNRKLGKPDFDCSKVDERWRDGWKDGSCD
# FGF22 binding – binders of recombinant human FGF22 by thermal shift; 1.5% of 340,000 active; AID 651658; SYPRO orange fluorescence; percent of sucrose octasulfate shift, DMSO zero; calls only at 9.99 µM;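 active = melting point raised past a set limit in the mean and every replicate; three in four hits are not shown here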
# Target sequence (Q9HCT0 whole entry, looked up): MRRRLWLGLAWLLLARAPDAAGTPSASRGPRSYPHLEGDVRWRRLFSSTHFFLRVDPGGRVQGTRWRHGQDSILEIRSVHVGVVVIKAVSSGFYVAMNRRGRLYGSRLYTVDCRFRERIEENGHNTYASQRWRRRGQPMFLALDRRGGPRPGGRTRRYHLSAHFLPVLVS
# Vif A3G – inhibitors of Vif binding to APOBEC3G peptide, primary screen, biochemical, TR-FRET, GST-Vif 1-94, biotin-A3G peptide, dose response retest (AID 1117319) | TR-FRET GST-Vif / biotin-A3G peptide binding; higher % means a stronger effect; test concentration not given here; strong numbers were not always called active | 0.57% of 260,000 active | inhibition, %, or IC50 in µM where a hit was titrated;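 active = above the screen mean plus three standard deviations and confirmed in dose response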;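 also: Vif residues 1-94 fused to GST binding biotinylated APOBEC3G peptide 110-148; 0% = full assay without inhibitor and 100% = GST in place of GST-Vif; retest series ran down from 100 µM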
# Ecoli growth – inhibitors of Escherichia coli growth | OD600, 23 h; hits give low values | OD600 absorbance (concentration not given with the values) | 0.21% of 330,000 active;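 active = OD600 absorbance below the run mean of sample wells minus 3.6 SD, in any replicate, cut at about 0.56 in these data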;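 also: stock transfer was 300 nL into about 60 µL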
# rRNA inh HTS OD600 – recorded beside rRNA inh HTS, whose call it bears; OD600 change, %; measured here: OD600 growth;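 optical density of the mix in the first replicate; 0 = DMSO median and -100 = no signal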
# rRNA inh HTS RFP – second read-out of rRNA inh HTS, no call of its own (marks repeat the call); RFP signal change, %; measured here: RFP humanized mutant strains;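 first replicate; 0 = DMSO median and -100 = no signal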
# * marks the source's active call; other numbers are inactive results; i = inactive; nt = no result given; & = joins results of further samples.
rRNA inh HTS	rRNA inh HTS OD600	rRNA inh HTS RFP	HNF4A DNA FP	AF4-AF9 inh	ALR H2O2 inh	FGF22 binding	Vif A3G	Ecoli growth	smiles
1&16	3&13	-0.3&4.8	-0.8	-0.4&-2.0	nt	i	2%	0.68	Cc1noc(C)c1S(=O)(=O)N(C)C[C@H]1Oc2c(NS(=O)(=O)c3cn(C)cn3)cccc2C(=O)N([C@H](C)CO)C[C@@H]1C
1	-4	1.2	1.1	-2.1	nt	i	-6%	0.78	COc1ccc(S(=O)(=O)N2CCN(c3cccc(C)c3C)CC2)cc1
2	2	3.2	1.4	-0.3	nt	i	nt	nt	Cc1c(CCCl)c(Cl)n2c(nc3ccccc32)c1C#N
6	1	-3.8	1.1	-7.3	-15	i	1%	0.69	Cc1ccccc1N(CC(=O)NCc1ccncc1)S(C)(=O)=O
11	15	-1.0	2.5	6.8	nt	i	0%	0.67	CCCCNC1(C#N)CCN(Cc2ccccc2)CC1
12	17	3.6	-0.3	-0.6	1	i	-5%	0.68	CC(C)(C)NC(=O)C(c1ccncc1)N(C(=O)C1CSC(=O)C1)c1ccccc1 (stereo not drawn)
nt	nt	nt	-5.4	nt	-3	nt	3%&-3%	0.68	CS(=O)(=O)N(CC(=O)Nc1ccccc1C(=O)NCCc1ccccc1)c1ccc2c(c1)OCCO2
nt	nt	nt	0.1	nt	2	nt	8%	0.74	COc1ccc(C(=O)COC(=O)C2CCN(S(=O)(=O)c3cccc4cccnc34)CC2)cc1
2	14	-1.3	0.8	0.3	-2	i	-4%	0.73	CCc1nnc(NC(=O)CCC(=O)NC2CCCCCCC2)s1
nt	nt	nt	-2.0	nt	8	nt	19%	0.69	Cn1c2c(c(=O)n(C)c1=O)C(CC(=O)Nc1ccccc1)C(=O)N2 (stereo not drawn)
nt	nt	nt	3.1	nt	-2	nt	-5%	0.7	Cc1cc(C)c(NC(=O)C(C)(C)C)c(Cl)c1
5	2	11	3.4	6.0	-25	i	-7%	0.68	C=C1CCC[C@]2(C)C[C@H]3OC(=O)C(CNCCN(C)C)[C@H]3CC12 (stereo partly drawn)
nt	nt	nt	1.9	nt	-21	nt	5%	0.72	COc1ccc(NC(=O)Nc2ccc(C)cc2OC(F)F)cc1OC
nt	nt	nt	1.9	nt	-3	nt	-3%	0.67	COc1ccc(NC(=O)c2cc(-c3cc(C)cc(C)c3O)n[nH]2)cc1Cl
nt	nt	nt	-4.3	nt	-14	nt	-1%	0.71	CC(C)C1=CC(=NS(=O)(=O)c2cccc([N+](=O)[O-])c2)C=C(C(C)C)C1=O
nt	nt	nt	-1.5	nt	1	nt	3%	0.62	Cc1ccc(C(CCN)c2ccco2)cc1 (stereo not drawn)

# Random excerpt: 5 records from the list
rRNA inh HTS	rRNA inh HTS OD600	rRNA inh HTS RFP	HNF4A DNA FP	AF4-AF9 inh	ALR H2O2 inh	FGF22 binding	Vif A3G	Ecoli growth	smiles
2	14	-1.3	0.8	0.3	-2	i	-4%	0.73	CCc1nnc(NC(=O)CCC(=O)NC2CCCCCCC2)s1
nt	nt	nt	3.1	nt	-2	nt	-5%	0.7	Cc1cc(C)c(NC(=O)C(C)(C)C)c(Cl)c1
5	2	11	3.4	6.0	-25	i	-7%	0.68	C=C1CCC[C@]2(C)C[C@H]3OC(=O)C(CNCCN(C)C)[C@H]3CC12 (stereo partly drawn)
nt	nt	nt	-1.5	nt	1	nt	3%	0.62	Cc1ccc(C(CCN)c2ccco2)cc1 (stereo not drawn)
nt	nt	nt	1.9	nt	-21	nt	5%	0.72	COc1ccc(NC(=O)Nc2ccc(C)cc2OC(F)F)cc1OC

# Further entries
rRNA inh HTS	rRNA inh HTS OD600	rRNA inh HTS RFP	HNF4A DNA FP	AF4-AF9 inh	ALR H2O2 inh	FGF22 binding	Vif A3G	Ecoli growth	smiles
8	4	2.8	1.1	2.8	nt	i	-3%	0.66	COc1cccc(CCC2C(=O)CCCC2=O)c1
-4	7	-0.9	nt	-2.2	nt	i	nt	nt	Cc1ccccc1-c1cnc2c(c1)C(=O)N([C@H](C)CO)C[C@@H](C)[C@H](CN(C)Cc1ccncc1)O2
1	0	1.1	nt	-2.5	nt	i	nt	nt	C[C@@H]1CN([C@H](C)CO)C(=O)Cc2cc(NS(C)(=O)=O)ccc2O[C@@H]1CN(C)CC1CC1
8	10	-1.2	0.0	0.6	nt	i	nt	0.64	Cc1ccc(S(=O)(=O)N2CCN(C)CC2)c2nsnc12
-2	14	2.5	2.2	-4.9	-3	i	7%	0.68	COc1ccc(NC(=O)CSCC(=O)N(C)Cc2cccc(OC)c2OC)cc1
-4	-5	0.1	nt	1.3	nt	i	nt	nt	O=C(C[C@H]1C[C@@H]2c3cc(NC(=O)Nc4ccccc4F)ccc3O[C@@H]2[C@@H](CO)O1)NCC(F)(F)F
-3	5	-4.0	0.7	-0.1	-13	i	18%	0.7	Cn1c(Cc2ccccc2)nnc1SCc1nc2ccccc2c(=O)[nH]1
2	11	-1.7	nt	-1.8	nt	i	nt	nt	CN(C)CC(=O)Nc1ccc2c(c1)[C@@H]1C[C@@H](CC(=O)NCc3ccccn3)O[C@@H](CO)[C@@H]1O2

# The closing 2 compounds of the section before lead into the next.
rRNA inh HTS	rRNA inh HTS OD600	rRNA inh HTS RFP	HNF4A DNA FP	AF4-AF9 inh	ALR H2O2 inh	FGF22 binding	Vif A3G	Ecoli growth	smiles
-3	5	-4.0	0.7	-0.1	-13	i	18%	0.7	Cn1c(Cc2ccccc2)nnc1SCc1nc2ccccc2c(=O)[nH]1
2	11	-1.7	nt	-1.8	nt	i	nt	nt	CN(C)CC(=O)Nc1ccc2c(c1)[C@@H]1C[C@@H](CC(=O)NCc3ccccn3)O[C@@H](CO)[C@@H]1O2
0	4	0.2	-2.4	-2.2	-8	i	nt	0.69	O=C(c1ccco1)N1CCN(C(=O)c2cc3ccccc3oc2=O)CC1
2	11	0.9	0.0	-2.9	7	i	nt	0.68	O=C(Nc1ccccc1F)C1CCN(S(=O)(=O)c2cccc3nonc23)CC1
4	8	0.2	nt	-1.5	nt	i	nt	nt	CCS(=O)(=O)Nc1ccc2c(c1)C(=O)N(C)C[C@H](OC)[C@@H](C)CN(C)[C@H](C)CO2
2	-2	3.5	3.1	1.4	nt	i	-4%	0.69	CC(Cc1ccccn1)NC(=O)c1ccc(OC2CCN(CCc3ccccc3)CC2)cc1 (stereo not drawn)
26	21	1.9	5.7	0.5	nt	i	nt	nt	Cc1ccc(-c2c(N)nc3ncccn23)cc1
nt	nt	nt	-0.5	nt	-9	nt	0%	0.68	COc1ccc(S(=O)(=O)Nc2ccc3ccccc3c2)cc1C
7	9	8.6	4.4	-2.7	-2	i	21%	0.62	Cc1ccc(NC(=O)c2cnn(C)c2)cc1[N+](=O)[O-]
1	-6	1.4	nt	-0.9	nt	i	nt	nt	CN1C(=O)c2cc(NC(=O)Cc3cccs3)ccc2OC[C@@H]2O[C@@H](CC(=O)NCCc3ccncc3)CC[C@H]21
1	7	-2.7	1.0	-7.3	-2	i	nt	0.67	COc1ccc(N2C(=NC(=O)C3CCCCC3)SC3CS(=O)(=O)CC32)c(OC)c1 (stereo not drawn)
16	22	-1.6	-1.9	-1.3	-3	i	-4%	0.67	CC(C)[C@H](NC(=O)C1CCN(C(=O)[C@H](Cc2ccccc2)NC(=O)OC(C)(C)C)CC1)C(=O)O
-3	5	-1.7	-3.5	-1.3	-6	i	-11%	0.66	CCc1ccc(OCc2cnc(Cl)s2)cc1
1	1	-3.8	2.9	-3.3	nt	i	7%	0.66	COc1ccc(N(Cc2cc3cccc(C)c3[nH]c2=O)C(=O)C2CCCO2)cc1 (stereo not drawn)
0	5	-2.1	-6.5	0.8	nt	i	nt	0.69	Cc1ccc(Cl)c(OCC(=O)OCC(=O)c2ccc[nH]2)c1
nt	nt	nt	2.6	nt	nt	nt	-3%	0.73	O=C(c1cncc(Br)c1)N1CCc2ccccc2C1
-21	-8	24	3.3	3.9	-9	i	nt	0.75	COc1ccc(-c2ccc(SCC(=O)c3ccc(F)cc3)nn2)cc1OC
0	3	-1.6	2.5	-1.3	-13	i	5%	0.65	Cc1cc(C)n(CCCNC(=O)C2CCC(=O)N(CCc3ccc(Cl)cc3)C2)n1 (stereo not drawn)
-10	-2	-4.3	-1.7	1.5	-13	i	nt	0.62	CCOC(=O)Cc1csc(NC(=O)c2ccc([N+](=O)[O-])cc2[N+](=O)[O-])n1
-8	-2	-18	6.5	0.0	1	i	nt	nt	Cc1ccccc1S(=O)(=O)N1[C@@H](c2ccccc2)C(C(=O)O)=CC[C@H]1c1ccc(Cl)cc1
-1	-7	-3.9	nt	-3.8	nt	i	nt	nt	CC(C)C#Cc1cnc2c(c1)C(=O)N([C@H](C)CO)C[C@@H](C)[C@@H](CN(C)C(=O)c1ccccc1F)O2
-39	-63	-13	-1.0	2.5	99*	i	-2%	0.68	Cc1ccccc1CSCC(=O)N1CCN(c2ccccc2)CC1
nt	nt	nt	0.2	nt	47	nt	nt	0.7	COC(=O)Cc1ccc(NC(=S)N2CCN(c3cccc(O)c3)CC2)cc1
3	9	2.7	-1.3	6.6	-3	nt	2%	0.71	COc1cc(C=O)ccc1Oc1ccc(S(=O)(=O)N2CCOCC2)cc1[N+](=O)[O-]
1	1	6.9	0.1	1.8	2	i	nt	0.7	CC(C)c1ccc(CNc2nnnn2C)cc1
7	9	-2.8	5.4	2.9	nt	i	nt	0.64	Cc1ccc(SCCSc2ncccn2)cc1
nt	nt	nt	5.5	-1.0	-6	i	nt	0.72	CCc1ccccc1NC(=O)[C@@H]1CCC(=O)N1C1OC(=O)c2c1ccc(OC)c2OC (stereo partly drawn)
28	20	3.2	2.3	-0.6	-9	i	16%	0.7	Cc1cccc(NC(=O)NC(=O)c2ccccc2)n1
-6	0	-1.8	-1.9	-3.9	-6	i	10%	nt	COc1ccc(/C=N/n2cnnc2)cc1Cn1nc(C)c([N+](=O)[O-])c1C
1	-1	-0.3	-6.3	2.7	-1	i	-1%	0.66	COc1ccc(NC(=O)CN(C)C(=O)c2cccc(S(=O)(=O)N3CCN(c4ccccc4)CC3)c2)cc1
1	6	-5.2	-0.8	0.1	nt	i	-1%	nt	O=S1(=O)C[C@@H](N2CCN(c3ccccn3)CC2)[C@H](COCc2ccccc2)N1
9	19	-2.0	-1.8	-0.7	nt	i	nt	nt	COc1ccc(NC(=O)[C@@H]2O[C@H](CO)[C@H](O)[C@H](O)[C@H]2O)cc1F
-1	-7	-1.0	nt	-2.6	nt	i	nt	nt	C[C@H]1CN([C@@H](C)CO)C(=O)c2cc(NS(=O)(=O)c3ccc(Cl)cc3)ccc2O[C@H]1CN(C)S(=O)(=O)c1ccc(F)cc1
-29	-38	-2.8	-2.7	5.3	nt	i	nt	0.65	Cc1ccc(-c2nnc(Nc3ccc4c(c3)OCO4)c3ccccc23)cc1S(N)(=O)=O
5	18	-1.4	nt	2.6	nt	i	nt	nt	CCCNC(=O)N1CCC2(CC1)CN(C(=O)c1ccncc1)[C@H](CO)c1[nH]c3cc(OC)ccc3c12
2	12	-1.6	3.3	-2.1	nt	i	nt	nt	CC(=O)Nc1ccc(NC(=O)c2csc([C@H]3C[C@H](O)[C@@H](CO)O3)n2)cc1
nt	nt	nt	-1.7	nt	-3	nt	0%	0.72	CCOC(=O)CCc1c(C)c2ccc(OC(C)C(=O)OCC)c(C)c2oc1=O (stereo not drawn)
8	4	0.7	0.4	-29	2	i	-2%	0.67	COC(=O)[C@@H](NC(=O)NCc1ccccc1F)C(C)C
10	9	1.9	-0.2	-0.5	-7	i	24%	0.69	CC(=O)NCCC(=O)Nc1cc(S(=O)(=O)N2CCOCC2)ccc1N1CCOCC1
79	-12	30	86	3.9	-38	i	0%	0.66	C=CCn1cc(/C=C/c2cc[n+](C)cc2)c2ccccc21
-14	-22	-1.7	-0.2	-0.3	82*	i	nt	0.67	O=C(NCC1CCCCC1)c1cccc(-c2ccc(O)cc2)c1

# Source: PubChem (several laboratories)

# Not all compounds are listed, so the mix of outcomes need not match the whole.
